Screening results deposited in PubChem by National Center for Advancing Translational Sciences (NCATS).
GLA inh pH 4.5: inhibitors of human alpha-galactosidase A at pH 4.5; purified enzyme, 4-MU-alpha-Gal fluorescence, pH 4.5; activity change, negative = inhibition, % at 105 µM; 230,000 tested, under 10 active; inconclusive = small, poorly fitted or top-dose-only inhibition, or a rising curve; inactive = flat fitted curve, though single readings scatter; no compound was filed as active;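 further: 0% = full activity with enzyme and -100% = basal without enzyme; dose as in the result columns while the protocol names 77 µM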
miR-21 reporter: miR-21 reporter, rising signal; HeLa miR-21 FLuc reporter, luciferase, 48 h; Potency, µM (titrated, usually from 38.3 µM), for inactives: at the highest dose reporter change, positive = more light; 340,000 tested, under 10 active; active = well fitted rising curve with a large enough effect; inconclusive = small, poorly fitted or top-dose-only effect; inactive = no such curve, though single readings can be large or run the other way;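 further: % of control where 0% means no effect; miR-21 action dims this reporter so a rising signal means less miR-21 action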
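Using DMEM plus 10% FBS, HeLa miR-21-FLuc cells are incubated with test compounds (final up to about 40uM) for 48 hours; firefly luciferase signal is then imaged following reagent-mediated lysis.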
Rango dissoc inh: inhibition of RanGTP-driven Rango-importin beta dissociation. O95149+P62826. Biochemical FRET Rango-importin beta, RanGTP-induced dissociation. Potency, µM (series often up to 46.1 µM), for the others: top-dose activity change, negative = inhibition. 0.071% of 340,000 active. AID 540253; active means falling FRET ratio curve, often poorly fitted, with flat reads before Ran was added; inconclusive means other falling curves, or compound fluorescence or quenching; inactive means flat or rising ratio curve;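 further: potency means the concentration at half of the fitted maximal effect; % of control where 0% means no effect; nearly all actives have a fitted effect of over 45% in size; -100% = wells without RanGTP and RCC1; the record marks most hits as doubtful in a second field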
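Two FRET readings bracket the reaction: one 5 min after compound meets Rango–importin beta, another 45 min after RanGTP-RCC1 (0.6 uM Ran, 0.2 uM RCC1, 2 mM GTP) is added. Only the second defines inhibition.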
Rango-impB inh: inhibitors of Rango-importin beta complex formation. Rango CFP/YFP FRET sensor + importin beta, 45 min. Q14974. 0.031% of 340,000 active. Potency, µM (highest dose often 92.2 µM), inactives show top-dose inhibition of complex formation. AID 540263; active = rising FRET ratio curve, often small or poorly fitted; inconclusive = mostly compound fluorescence or quenching in the first reads; inactive = flat curves in all reads;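 further: potency means the concentration at half of the fitted maximal effect; 0% = DMSO wells and 100% = buffer wells lacking importin beta; nearly all actives have a fitted effect of over 15% in size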
Target sequence (Q14974 whole entry, looked up): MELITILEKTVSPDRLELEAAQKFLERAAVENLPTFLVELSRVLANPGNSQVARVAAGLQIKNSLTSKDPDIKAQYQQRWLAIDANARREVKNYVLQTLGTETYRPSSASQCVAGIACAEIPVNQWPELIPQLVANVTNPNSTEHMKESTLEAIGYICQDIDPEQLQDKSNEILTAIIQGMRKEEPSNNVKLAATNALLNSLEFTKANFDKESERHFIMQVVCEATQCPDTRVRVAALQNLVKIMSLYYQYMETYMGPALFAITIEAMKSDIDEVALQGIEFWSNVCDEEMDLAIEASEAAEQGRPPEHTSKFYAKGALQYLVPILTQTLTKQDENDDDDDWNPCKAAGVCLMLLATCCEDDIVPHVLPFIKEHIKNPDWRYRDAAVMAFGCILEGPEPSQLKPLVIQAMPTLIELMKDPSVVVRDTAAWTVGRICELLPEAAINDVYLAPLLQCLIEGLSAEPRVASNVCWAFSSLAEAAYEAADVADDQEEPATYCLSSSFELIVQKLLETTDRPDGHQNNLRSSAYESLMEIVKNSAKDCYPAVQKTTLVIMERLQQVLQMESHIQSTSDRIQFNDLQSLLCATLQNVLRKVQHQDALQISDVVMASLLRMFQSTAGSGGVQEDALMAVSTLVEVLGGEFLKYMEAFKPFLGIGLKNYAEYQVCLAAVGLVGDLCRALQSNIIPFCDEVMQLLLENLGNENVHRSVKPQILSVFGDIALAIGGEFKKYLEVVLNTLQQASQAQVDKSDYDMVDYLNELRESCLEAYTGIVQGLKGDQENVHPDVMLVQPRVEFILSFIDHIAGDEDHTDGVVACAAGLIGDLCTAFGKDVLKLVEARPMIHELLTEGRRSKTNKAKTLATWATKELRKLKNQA
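Inhibition scored from the CFP 486 nm/YFP 530 nm FRET ratio 45 min after adding 0.125 microM importin beta to 50 nM Rango biosensor preincubated 5 min with compound (room temperature, PBS with DTT, Tween-20, BSA). No-importin wells as positive control.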
* marks the source's active call; other numbers are inactive results; ? = inconclusive; / = not tested or not shown; & = joins results of further samples. An excerpt, so the mix of outcomes need not match the whole.

Rango-impB inh,GLA inh pH 4.5,Rango dissoc inh,miR-21 reporter,SMILES
-4.5%,/,19%,0%&-18%,CC(C)CC(=O)Nc1nnc(S(=O)(=O)N2c3ccccc3CC2C)s1 (stereo not given)
0.7%,3,-12%,-10%,CCCc1ccc(C(=O)[C@@H]2[C@@H](C(C)=O)N3c4ccc(F)cc4C=C[C@@H]3[C@@]23C(=O)Nc2ccccc23)cc1
-0.7%,/,-13%,/,COc1ccc(NC(=O)CSc2nc(=O)n(CCN3CCOCC3)c3c2CCCC3)c(OC)c1
1.0%,/,-18%,/,Cc1ccc(CN2CC(C(=O)Nc3cc(C)ccn3)CC2=O)cc1 (stereo not given)
?,-7,0%,0%,COc1cc(/C=C(/C#N)C(=O)Nc2ccc(Cl)cc2)ccc1Oc1nc(Cl)ncc1F
-3.0%,3,11%,-9%,COC(=O)C(CCSC)NC(=O)Cn1ncc2c(=O)oc3ccc(C)cc3c21 (stereo not given)
3.4%,4&-1,-16%,-4%,COC(=O)N1[C@H](Cc2ccccc2)C=C[C@]1(C)C(=O)NCc1ccccn1
-0.6%,-8,13%,-6%,CC(C)(C)Cc1nc(-c2ccc(Cl)cc2)no1
3.2%,1,0%,-70%,C/C(=N/NC(=O)c1ccoc1C)c1cccc(NC(=O)C(F)(F)F)c1
-1.2%,4,-10%,-5%,COc1ccc(OC)c(Nc2ccc(C(=O)O)cc2[N+](=O)[O-])c1
1.7%,/,4%,/,COc1ccc2c(CC(=O)NNC(=O)c3ccccc3F)coc2c1
3.8%,-16,-6%,-11%,O=S(=O)(c1ccccc1)N1N=C(c2cccs2)CC1c1ccc(F)cc1 (stereo not given)
-0.3%,/,1%,/,O=C(NCCN1C(=O)S/C(=C/c2ccccc2)C1=O)C1CC(=O)N(Cc2ccccc2)C1 (stereo not given)
-0.2%,4,-4%,7%,CCCCOc1ccc(C(=O)NCC2(c3ccccc3)CCOCC2)cc1
0.6%,/,-5%,18%,COc1ccccc1N1CCN(C(=O)c2cc(=O)c3cc(C)ccc3o2)CC1
0.4%,5,0%,-36%,CCCN(CCC)C(=O)CSc1nc2ccsc2c(=O)n1NC(=O)c1ccccc1
1.2%,/,7%,-44%,COc1ccc(OCc2cc(C(=O)N3CCCCCC3)no2)c(Cl)c1
1.5%,-1,12%,-1%,O=C(c1nn(Cc2ccccc2)c(=O)c2ccccc12)N1CCN(C/C=C/c2ccccc2)CC1
0.7%,/,-2%,-27%,CC(=O)c1ccc(OCc2cc(C(=O)N(C)Cc3cc(C)no3)no2)cc1
2.5%,3,-4%,-2%,O=C(CN1C(=O)NC(Cc2c[nH]c3ccccc23)C1=O)Nc1cccc(S(=O)(=O)N2CCCC2)c1 (stereo not given)
1.6%,3,-14%,-10%,COc1ccc(-c2nn(-c3ccccc3)cc2C(=O)O)cc1OC
-4.2%,4,-10%,-2%,COc1cc(OC)cc(C(=O)NC(C(=O)O)C23CC4CC(CC(C4)C2)C3)c1 (stereo not given)
-0.6%,/,17%,/,COc1ccc(C2=NOC(Cn3nc(-c4ccccc4)cc3C(=O)O)C2)cc1 (stereo not given)
-1.7%,-7,-14%,-30%,CC1(C)CC(=O)C/C(=N/Nc2nc3ccccc3s2)C1
4.8%,/,-10%,/,COc1cccc(NC(=O)CN(C)C(=O)CCNC(=O)c2ccccc2OC)c1
?,/,-21%,-13%,COC(=O)Cn1c2ccccc2c2nc3ccccc3nc21
0.1%,-11,2%,4%,CCOC(=O)C1=C(C)N=C2SC(C)C(=O)N2C1c1cccc(F)c1 (stereo not given)
0.8%,6,-11%,-5%,Nc1nc(-n2cnnc2)nn1-c1ccccc1
0.6%,-4,-2%,-4%,Cc1ccc(OCC(=O)N2N=C(c3ccc(Cl)cc3)CC2c2ccco2)c([N+](=O)[O-])n1 (stereo not given)
3.4%,-1,4%,-41%,O=C(Nc1ccc(-c2nc3ccccc3o2)cc1)c1cccnc1
6.4%,-5,0%,-2%,O=C(COc1cc(O)c2c(=O)c3ccccc3oc2c1)OCc1ccccc1
-3.0%,/,6%,/,O=C(COc1ccccc1)Nc1cc(S(=O)(=O)N2CCOCC2)ccc1N1CCCC1
-0.4%,/,13%,/,O=S(=O)(CCNCc1ccco1)NCc1ccccc1
-5.7%,/,-10%,1%,CCCCCC(=O)Nc1cc(S(=O)(=O)N2CCCCC2)ccc1N1CCOCC1
-1.6%,/,19%,/,COCCN(C(=O)c1cc(S(=O)(=O)N2CCCCC2)ccc1Cl)c1c(N)n(CC(C)C)c(=O)[nH]c1=O
2.2%,-2,-6%,-10%,COc1ccc(Cl)cc1NC(=O)CC(C)=O
5.1%,4,5%,-12%,Cc1nn(CC(=O)c2ccc(Cl)s2)c(C)c1[N+](=O)[O-]
-0.7%,/,1%,5%,CCOc1cccc(C(=O)Nc2cc(C)ccc2NC(=O)c2ccco2)c1
-0.2%,/,-1%,/,CCCc1ccc(-c2csc(NC(=O)C3=COCCO3)n2)cc1
0.0%,/,-8%,2%,O=C(NCCNC(=O)c1ccco1)c1ccc(Cl)c(Cl)c1
-2.6%,-25,-5%,18%,Cc1ccc(Oc2ccc(S(=O)(=O)N3CCOCC3)cc2C(N)=O)c(-n2nc3ccccc3n2)c1
1.0%,/,7%,1%,COc1ccc(C2C(C(=O)c3ccco3)=C(O)C(=O)N2CC2CCCO2)c(OC)c1 (stereo not given)
-0.2%,3,-5%,-3%,O=C(CSc1nnc(-c2ccc3c(c2)OCO3)o1)Nc1ncc(C(F)(F)F)cc1Cl
1.8%,/,3%,/,CCOc1ccc(NC(=O)CN(C)C(=O)C2CC(=O)N(CCc3ccccc3)C2)cc1OCC (stereo not given)
-0.5%,/,-9%,0%,COc1cc(C(=O)N2CCN(C)CC2)cc(OC)c1OC
0.5%,2,-7%,-9%,CCCOc1ccc(C2C(C(=O)c3ccco3)=C(O)C(=O)N2CCCn2ccnc2)cc1 (stereo not given)
-2.3%,8,8%,-3%,COC(=O)Nc1ccc(S(=O)(=O)N(C)C)cc1
3.4%,/,-26%,/,O=C(Nc1cccc(Cl)c1)c1nc[nH]c1C(=O)NCc1ccccc1
3.9%,/,-16%,/,COc1cc(C(=O)Nc2ccc(F)cc2Cl)ccc1OCC(=O)N1CCOCC1
-0.3%,-2,-4%,0%,CCOC(=O)COc1ccc(S(=O)(=O)N2CCN(c3ccc(OC)cc3)CC2)cc1
-1.5%,/,1%,/,CN(CC(=O)Nc1ccccc1Cl)C(=O)CSC(=S)N1CCCC1
0.0%,-3,0%,-7%,O=C(CCC1COc2ccccc2O1)Nc1cccnc1 (stereo not given)
2.3%,4,-8%,1%,Cc1cc(C(=O)NCCCN(C)C)c2ccccc2n1
-0.7%,-11,-22%,-3%,Cc1ccc(C(=O)Nc2c(C)cc(-c3ccccc3)oc2=O)cc1
8.3%,/,-1%,14%,CN(C)C(=O)COc1ccc(C(=O)/C=C/c2cccnc2)cc1
0.1%,/,22%,0%,CCCCC(=O)Nc1ccc(C(=O)NCCN2CCOCC2)cc1
2.7%,5,9%,-8%,CCCCCNC(=O)CCCCn1c(=O)[nH]c2cc(OCC)c(OCC)cc2c1=O
1.7%,-5,2%,-34%,COc1ccc(Cl)cc1Nc1nc(C)cc(C)c1C(N)=O
-4.1%,6,1%,-33%,C=C(C)CSc1nc(N)c2c(C)c(C)sc2n1
6.0%,/,-3%,/,CC(C)(C)c1ccc(C(=O)N2CCN(S(=O)(=O)c3ccc(Br)s3)CC2)cc1

Part of the list above in order of heavy-atom count, highest first.
Rango-impB inh,GLA inh pH 4.5,Rango dissoc inh,miR-21 reporter,SMILES
-1.6%,/,19%,/,COCCN(C(=O)c1cc(S(=O)(=O)N2CCCCC2)ccc1Cl)c1c(N)n(CC(C)C)c(=O)[nH]c1=O
-2.6%,-25,-5%,18%,Cc1ccc(Oc2ccc(S(=O)(=O)N3CCOCC3)cc2C(N)=O)c(-n2nc3ccccc3n2)c1
0.5%,2,-7%,-9%,CCCOc1ccc(C2C(C(=O)c3ccco3)=C(O)C(=O)N2CCCn2ccnc2)cc1 (stereo not given)
1.0%,/,7%,1%,COc1ccc(C2C(C(=O)c3ccco3)=C(O)C(=O)N2CC2CCCO2)c(OC)c1 (stereo not given)
3.9%,/,-16%,/,COc1cc(C(=O)Nc2ccc(F)cc2Cl)ccc1OCC(=O)N1CCOCC1
6.4%,-5,0%,-2%,O=C(COc1cc(O)c2c(=O)c3ccccc3oc2c1)OCc1ccccc1
-1.5%,/,1%,/,CN(CC(=O)Nc1ccccc1Cl)C(=O)CSC(=S)N1CCCC1
8.3%,/,-1%,14%,CN(C)C(=O)COc1ccc(C(=O)/C=C/c2cccnc2)cc1
0.0%,/,-8%,2%,O=C(NCCNC(=O)c1ccco1)c1ccc(Cl)c(Cl)c1
2.3%,4,-8%,1%,Cc1cc(C(=O)NCCCN(C)C)c2ccccc2n1
5.1%,4,5%,-12%,Cc1nn(CC(=O)c2ccc(Cl)s2)c(C)c1[N+](=O)[O-]
-2.3%,8,8%,-3%,COC(=O)Nc1ccc(S(=O)(=O)N(C)C)cc1

More results.
Rango-impB inh,GLA inh pH 4.5,Rango dissoc inh,miR-21 reporter,SMILES
-0.2%,0,11%,-48%,Cc1nnc(NC(=O)C2COc3ccccc3O2)s1 (stereo not given)
-4.5%,3,40%,-6%,Cn1c(Cc2ccccc2)n[nH]c1=S
1.2%,-2,7%,-2%,CCOc1cc(/C=C2/NC(=S)NC2=O)ccc1OCc1ccc([N+](=O)[O-])cc1
-0.7%,/,0%,/,COc1ccccc1N(CC(=O)N(C)Cc1ccccc1)S(=O)(=O)c1cccs1
3.3%,0,1%,-9%,O=C1CC(N2CCSCC2)C(=O)N1CCc1ccccc1 (stereo not given)
-0.1%,/,2%,-5%,Cc1ccc2[nH]c3c(c2c1)CN(C)CC3
-2.2%,3,-6%,-7%,CCS(=O)(=O)N1CCCC(C(=O)NCc2ccc(C)cc2)C1 (stereo not given)
2.7%,/,8%,0%,Cc1cc(=O)oc2c(C)c(OCC(=O)N3CCC(C(=O)O)CC3)ccc12
0.9%,-2,35%,-2%,Cc1cc(C)cc(N(CC(=O)Nc2cccc(C)n2)S(=O)(=O)c2c(C)noc2C)c1
-0.2%,-6,1%,-6%,CCOC(=O)c1c(CN(C)C)n(-c2ccccc2)c2cc(Br)c(OC)cc12
3.3%,-7,-5%,-9%,COCCN(C(C)=O)c1nnc(-c2cnccn2)s1
3.0%,4,4%,0%,CCOc1ccccc1CN1CCN(Cc2cccc3nonc23)CC1CCO (stereo not given)
4.1%,0,-7%,6%,O=C1c2cc(S(=O)(=O)NCCCO)ccc2-c2ccc(S(=O)(=O)NCCCO)cc21
-1.4%,-3,9%,-1%,CCOC(=O)C1=C(C)NC(=S)NC1c1ccc(-c2ccc(Cl)cc2)o1 (stereo not given)
-0.2%,7,8%,2%,CCCN(CCC)CCCNC(=O)c1cn(CCOC)c(=O)c2c1c1ccccc1n2C
-0.8%,/,-22%,/,CCc1ccc(C(=O)NNC(=O)C2CC(=O)N(c3ccc4c(c3)OCCO4)C2)cc1 (stereo not given)
1.4%,/,-2%,-6%,Cc1ccc(-n2ccc(=O)c(C(=O)Nc3ccc(S(=O)(=O)Nc4nccc(C)n4)cc3)n2)cc1
0.5%,-1,-10%,-2%,O=C(CCn1cccc1)NCc1ccccc1
1.1%,/,-8%,-1%,Cc1csc(CNC(=O)C2CCC(=O)N(CCCc3ccccc3)C2)n1 (stereo not given)
0.2%,2,-6%,-39%,Cc1ccc(C)c(C(=O)CSc2nnc(C)s2)c1
-2.9%,1,15%,4%,CCOc1ccccc1CNCCN1CCOCC1
-0.2%,-7,1%,11%,CCOC(=O)c1cc(C#N)c(Oc2cccc(C(F)(F)F)c2)nc1-c1ccccc1
-1.2%,-1,2%,-16%,COc1ccc(NC2(c3ccc(Cl)cc3)C(=O)c3ccccc3C2=O)cc1
